# Assay outcomes from PubChem.
# Mtb betalactam: beta-lactam sensitization of Mtb H37Rv. M. tuberculosis H37Rv growth with meropenem, percent inhibition; hits of this screen are not shown here. inhibition, % at 25 µM. actives 0.27% (n = 330,000);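 active = about 74% or more and at least 40 points above the plate without the antibiotic, then above 30% in a dose series; inconclusive = first-round hits that could not be retested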;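 also: growth measured after seven days incubation then overnight dye step; 0% = bacteria only wells and 100% = bacteria with antibiotic; twin plates without the antibiotic show which effects depend on it; some results filed as inactive read as strong as hits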
# Numbers without * were called inactive; u = inconclusive. Not all compounds are listed; count on the stated rates, not on these rows.
SMILES,Mtb betalactam
C=CCN=C1S/C(=C\N(C)C)C(=O)N1S(=O)(=O)c1ccc(C)cc1,-0.7
O=S(=O)(c1ccc(=S)[nH]c1)N1CCN(Cc2ccccc2)CC1,-8.5
Cn1c(=O)c2ccccc2n(Cc2ccccc2Cl)c1=O,-6.8
CC(OC(=O)Cc1c[nH]c2ccccc12)C(=O)NC1CCCCC1C (stereo not given),-10.8
CC1CCCC(NC(=O)CSc2n[nH]c(N)n2)C1C (stereo not given),-4.2
CCCCC1CCC(C(=O)N(C)CC(=O)Nc2cccc(OC)c2)CC1 (stereo not given),-7.3
O=C(CN1C(=O)NC2(CCc3ccccc32)C1=O)Nc1c(Cl)cccc1Cl (stereo not given),0.6
Cc1nn(C)c(C)c1NS(=O)(=O)c1ccc(Cl)s1,-7.7
Cc1cc(C)c(C#N)c(SCC(=O)Nc2cc(C)on2)n1,-4.3
CSc1ccccc1NC(=O)CN(C)C(=O)C1CC(=O)N(C(C)c2ccccc2)C1 (stereo not given),9.5
Cc1noc(C)c1NC(=O)Nc1cccc2c1O[C@H](CN(C)C(=O)Nc1ccccc1)[C@@H](C)CN([C@H](C)CO)C2=O,-2.9
CCN(CC)CCCN1C(=O)C2C(C(=O)Nc3ccc(C(C)C)cc3)C3C=CC2(O3)C1C(=O)NC1CCCCC1 (stereo not given),-0.3
C#CCOCCOCCOCCNc1nc(N2CCN(C(=O)CCCCCCCCCCNC(=O)Cn3cc(CCCCCN)nn3)CC2)nc(N2CCN(C(=O)CCCCCCCCCCNC(=O)Cn3cc(CCCCCN)nn3)CC2)n1,-6.6
CC(NC(=O)COc1ccccc1)C(=O)N1CCN(c2ccccc2)CC1 (stereo not given),-2.6
CCOc1ccc(C(=O)CCC(=O)NCC(=O)Nc2c(C)cccc2C)cc1,-0.3
C[C@@H]1CC[C@@]23COC(=O)C2=CCC[C@@H]3[C@@]1(C)CC/C(=C/CO)CO,0.3
Nc1nnc(SCC(=O)Nc2cccc(S(=O)(=O)N3CCCCC3)c2)s1,4.8
CC1CCCC(NC(=O)CSc2nnc(C(F)(F)F)n2C)C1C (stereo not given),0.4
CC(C)CN(C(=O)CSc1ncnc2ccccc12)C1CCS(=O)(=O)C1 (stereo not given),-16.1
COc1cc(C(=O)NC(=S)N2CCN(C)CC2)cc(OC)c1OC,2.5
O=C(NCc1cc(C(F)(F)F)ccc1Cl)c1cccc2c1C(=O)c1ccc(N3CCCCC3)cc1S2(=O)=O,-2.4
COc1cccc(C(NC(C)=O)c2ccc3cccnc3c2O)c1 (stereo not given),2.9
COc1ccc(NC(=O)CCOc2ccc(C)cc2)c(OC)c1,-0.5
O=C(OCCc1cc2ccccc2c(=O)o1)c1cccs1,11.6
CC1CN(C(=O)COC(=O)c2cccc(S(=O)(=O)N3CCc4ccccc43)c2)CC(C)O1 (stereo not given),2.2
COc1cc(OC)cc(-c2c(-c3ccc(F)cc3)c3cc(-c4ccc5c(c4)OCCO5)ccc3n2C)c1,-3.6
O=C(CCNC(=O)c1ccc([N+](=O)[O-])cc1)Nc1ccccc1N1CCCCC1,1.7
O=C(N1CCN(S(=O)(=O)c2ccc(Cl)cc2)CC1)n1ccnc1,-0.8
O=C(COc1ccc(-c2nnco2)cc1)Nc1cc([N+](=O)[O-])ccc1F,0.4
CCC(=O)c1ccc(OCC(=O)Nc2ccccc2C(=O)NC2CC2)cc1,-0.6
C=CCNc1nc(C(=O)OCC(=O)c2cccc(Br)c2)cs1,3.5
COc1ccc(-c2ccc3c(c2)O/C(=C\c2ccsc2)C3=O)cn1,1.8
Cc1cn([C@H](C(=O)NCCCCCCCCCCC(=O)N2CCNCC2)[C@@H](C)O)nn1,6.4
COC(=O)C1=C(c2ccc(OC)c(OC)c2)C[C@@H]2CC[C@H]1N2C(=O)NCc1ccco1,-4.8
CCc1ccccc1OCC(=O)Nc1ccc(C)c(S(=O)(=O)N2CCCCCC2)c1,0.5
O=S(=O)(c1ccc2ccccc2c1)N1CCN(S(=O)(=O)c2c(F)cccc2F)CC1,-11.2
Cc1noc(C)c1C(=O)NC(Cc1c[nH]c2ccccc12)C(=O)O (stereo not given),-10.3
Cc1ccc2nc(SCC(=O)NC3CCS(=O)(=O)C3)[nH]c2c1 (stereo not given),1.5
COc1ccc2c(c1)OC[C@H]1[C@H]2N2C(=O)CN(C)C(=O)[C@@]2(C)[C@H]1c1ccccc1,-3.2
O=C(COc1cc(F)ccc1[N+](=O)[O-])NCCN1C(=O)CSC1=O,1.4

# The closing 7 compounds of the part before come first, to join the parts.
SMILES,Mtb betalactam
COC(=O)C1=C(c2ccc(OC)c(OC)c2)C[C@@H]2CC[C@H]1N2C(=O)NCc1ccco1,-4.8
CCc1ccccc1OCC(=O)Nc1ccc(C)c(S(=O)(=O)N2CCCCCC2)c1,0.5
O=S(=O)(c1ccc2ccccc2c1)N1CCN(S(=O)(=O)c2c(F)cccc2F)CC1,-11.2
Cc1noc(C)c1C(=O)NC(Cc1c[nH]c2ccccc12)C(=O)O (stereo not given),-10.3
Cc1ccc2nc(SCC(=O)NC3CCS(=O)(=O)C3)[nH]c2c1 (stereo not given),1.5
COc1ccc2c(c1)OC[C@H]1[C@H]2N2C(=O)CN(C)C(=O)[C@@]2(C)[C@H]1c1ccccc1,-3.2
O=C(COc1cc(F)ccc1[N+](=O)[O-])NCCN1C(=O)CSC1=O,1.4
O=C(C[C@@H]1C/C=C\C[C@H](NC(=O)OCC2c3ccccc3-c3ccccc32)C(=O)OC[C@@H]2CCCN2C1=O)N[C@H](CO)Cc1ccccc1,3.7
CCN(CC(=O)NCc1ccc(F)cc1)C(=O)COc1ccccc1[N+](=O)[O-],-0.8
CC1(C)O[C@@H]2[C@H](O1)[C@@H](COS(=O)(=O)O)O[C@H]2n1ccc(=O)[nH]c1=O,-4.5
CC(C)(C)NC[C@@H](O)COc1cccc2c1CCCC2=O,-9.1
Cc1ccccc1NC(=O)COC(=O)CCc1c[nH]c2ccccc12,98.9
COc1ccc(Cl)cc1NC(=O)CN(C)C(=O)CN1C(=O)NC(C)(C)C1=O,-1.0
CCc1cccc(C)c1NC(=O)CCN1C(=O)NC(C)(C)C1=O,1.0
COc1ccc(OC)c(NC(=O)CN2C(=O)C(=O)N(Cc3ccccc3)C2=O)c1,-2.1
COCCNC(=S)Nc1ccc(N2CCOCC2)c(S(=O)(=O)Nc2ccccc2OC)c1,4.5
COc1ccc(CCNC(=O)COC(=O)C2CC2C)cc1 (stereo not given),-5.0
CCOc1ncccc1C(=O)OCC(=O)Nc1cccc(S(=O)(=O)N2CCCCCC2)c1,-1.9
O=C(C1COc2ccccc2O1)N1CCN(c2ccc([N+](=O)[O-])cc2)CC1 (stereo not given),0.1
CSCCC(NS(=O)(=O)c1ccc(C)cc1C)C(=O)Nc1cccnc1 (stereo not given),-1.3
COc1ccc(N(C)S(=O)(=O)c2cccc(C(=O)NCc3ccc(C)cc3)c2)cc1,0.1
Cc1ccc(NC(=O)c2ccc(=O)[nH]n2)cc1S(=O)(=O)Nc1ccccc1Cl,-1.1
COc1ccc(N2CCN(C(=O)CN3C(=O)NC4(CCCCCC4)C3=O)CC2)cc1,-0.8
COc1ccc(-c2sc3cc(OC)c(OC)cc3c2C#CC2(O)CCCCC2)cc1,91.8
NC(=O)COC(=O)c1cc([N+](=O)[O-])ccc1NCCO,0.4
CCOc1ccc(NC(=O)CN(C)C(=O)Cc2n[nH]c(=O)c3ccccc23)cc1OCC,0.9
COc1ccc(NC(=O)CSc2nc3ccccc3c(=O)n2CCCO)cn1,-2.5
COc1ccc(C2=Nn3c(nnc3-c3ccccc3OC)SC2)cc1OC1CCCC1,69.0
COc1ccccc1C(=O)Nc1ccc(OCC(=O)N2CCCCC2)cc1,50.5
COc1ccc(-c2cc(C(=O)OCC(=O)N3CCOCC3)c3ccccc3n2)cc1,65.3
CC(=O)Nc1ccc(S(=O)(=O)Nc2ccc(N3CCCCC3)cc2)cc1,98.0
CC(C)(C)c1cc(-c2nc(N)nc(N)n2)c(O)c(C(C)(C)C)c1,99.3
O=C(Nc1cc2c(cc1Br)OCCCO2)c1cccnc1,u
O=C(CSc1nc2cc(Cl)ccc2o1)NC1CC1,17.1
CCCCN(C(=O)C(C)N1C(=O)c2ccccc2C1=O)c1c(N)n(CC(C)C)c(=O)[nH]c1=O (stereo not given),-1.2
Cc1ccc(CN(C)C(=O)c2ccccc2NC(=O)c2ccccc2)o1,-2.8
C[C@@H](C(=O)Nc1ccc(OC(F)F)c(Cl)c1)N1C(=O)C2CC=CCC2C1=O (stereo not given in full),-5.3
CC(=O)Nc1cccc(NC(=O)CN2c3cccc4cccc(c34)S2(=O)=O)c1,-5.8
N#CCCN(C(=O)COC(=O)CNS(=O)(=O)c1ccc2ccccc2c1)c1ccccc1,-1.6
Cc1nc2nc(C)c(NS(=O)(=O)c3ccc(C(C)(C)C)cc3)c(=O)n2[nH]1,-12.2
COc1ccc(NC(C)=O)cc1S(=O)(=O)NC(C)c1ccc(-n2ccnc2)cc1 (stereo not given),-11.5
CN(C)S(=O)(=O)c1ccc(NC(=O)CSc2nnc(-c3ccco3)o2)cc1,1.7
COc1cccc(-c2sc3ccccc3c2-c2ccc(OCCN3CCCC3)cc2)c1,100.1
COc1cc(OC)cc(-c2c(C#Cc3ccsc3)c3cc(-c4ccc(SC)cc4)ccc3n2C)c1,-11.1
CCC(C)CCN1CCN=C1N(C)C (stereo not given),-3.9
CSc1ccc(/C=C(\C(=O)O)c2ccc(S(=O)(=O)N3CCCC3)s2)cc1,-6.6
Oc1ccccc1O,4.9
Cn1cccc1C(=O)OCC(=O)NC(=O)c1ccc(Cl)cc1,-6.1
COc1ccc(C(=O)NNC(=O)c2ccc(F)c(S(=O)(=O)N3CCOCC3)c2)cc1,5.1
CC(NC(=O)COC(=O)C1CC2CCCC(C1)C2=O)c1ccccc1 (stereo not given),5.5
C=CCC[C@H](Cc1ccc(F)cc1)C(=O)OC[C@H](Cc1c[nH]c2ccccc12)NC(=O)[C@@H](CC=C)CC(=O)N[C@H](CO)Cc1ccccc1,-6.0
Cc1cccc(NC(=O)CNC(=O)COC(=O)c2ccc(C(C)(C)C)cc2)c1C,1.2
CC[C@@]1(C(=O)OC)N[C@H](CN(C)C(=O)Nc2ccc(OC)cc2)[C@@H]2C(=O)N(C)C(=O)[C@@H]21,-6.5
O=C(COC(=O)/C=C/c1ccccc1)NCCc1ccc(F)cc1,-3.8
COc1ccc(S(=O)(=O)N2CCCCC2)cc1NC(=O)c1cnc(C)cn1,-9.3
O=C(N[C@@H]1C/C=C\C[C@@H](CC(=O)N(CCO)Cc2ccccc2)C(=O)N[C@@H](c2ccccc2)COC1=O)OCC1c2ccccc2-c2ccccc21,1.4
NC(=O)C1CCN(c2nc(-c3ccccc3-c3ccccc3)cs2)CC1,2.4
O=S(=O)(c1ccc2c(c1)OCCO2)N1C[C@@H]2C[C@H]1CN2S(=O)(=O)c1c(F)cccc1F,-2.8
CSc1ccccc1C(=O)OCC(=O)N1CCCC1=O,-2.1
Cc1ccc(NC(=O)c2nc[nH]c2C(=O)NCCCCCCNC(=O)c2[nH]cnc2C(=O)Nc2ccc(C)cc2)cc1,4.3
CCCN(CC(=O)Nc1cc(C)on1)CC(=O)Nc1ccc(F)c(F)c1F,-10.7
CCOc1ncccc1C(=O)Nc1cc(S(=O)(=O)N2CCCCC2)ccc1C,-8.8
O=S(=O)(c1ccc(SCc2ccccc2)nc1)N1CCCCCC1,-12.7
CC(NC(=O)C1CCN(C(=O)c2ccc(F)cc2)CC1)c1ccc(S(N)(=O)=O)cc1 (stereo not given),3.6
C[C@H](CO)N1C[C@H](C)[C@@H](CN(C)C)Oc2c(NS(=O)(=O)c3cccs3)cccc2C1=O,-12.7
CC(C#N)Sc1ccc(S(=O)(=O)N2CCCC2)cn1 (stereo not given),4.2
Fc1ccc2cnc(-c3ccccc3)c(-c3cc(C(F)(F)F)cc(C(F)(F)F)c3)c2c1,5.4

# The closing 4 records of the part before come first, to join the parts:
SMILES,Mtb betalactam
CC(NC(=O)C1CCN(C(=O)c2ccc(F)cc2)CC1)c1ccc(S(N)(=O)=O)cc1 (stereo not given),3.6
C[C@H](CO)N1C[C@H](C)[C@@H](CN(C)C)Oc2c(NS(=O)(=O)c3cccs3)cccc2C1=O,-12.7
CC(C#N)Sc1ccc(S(=O)(=O)N2CCCC2)cn1 (stereo not given),4.2
Fc1ccc2cnc(-c3ccccc3)c(-c3cc(C(F)(F)F)cc(C(F)(F)F)c3)c2c1,5.4
c1nc(C2CCCCC2)cc2cc3c(cc12)OCO3,81.4
Cc1nn(CC(=O)NC2CCCC2)c(C)c1[N+](=O)[O-],-2.7
CNCC(O)c1ccc(OC(=O)C(C)(C)C)c(OC(=O)C(C)(C)C)c1 (stereo not given),6.7
CCc1ccc([C@@H]2CC=C(C(=O)O)[C@H](c3ccc(Cl)cc3)N2S(=O)(=O)c2ccc(C)cc2)cc1,5.1
O=C(NC1CCCN(c2ccc(C(F)(F)F)cn2)C1)c1cc(Cl)ccc1F (stereo not given),u
COc1ccc(-c2oc3ccccc3c2C#CC(C)(C)O)cc1,74.7
Cc1cccn2c(=O)c3cc(C(=O)N4CCCCC4C)sc3nc12 (stereo not given),51.3
O=C(CCCN1C(=O)/C(=C/c2ccccc2OC(F)F)SC1=S)Nc1cccnc1,88.4
CN(CC1COc2ccccc2O1)C(=O)c1cccc(S(=O)(=O)N2CCCC2)c1 (stereo not given),0.5
CC1CC(C)CN(C(=O)COC(=O)c2ccc3c(c2)OCCO3)C1 (stereo not given),5.4
Nn1c(SCC(=O)Nc2ccc(N3CCOCC3)cc2)nnc1-c1ccccc1F,0.5
Cc1cc(C)cc(OCC(=O)OCc2cc([N+](=O)[O-])cc3c2OCOC3)c1,79.0
Cc1ccc(C)c(S(=O)(=O)NCc2ccc(C(=O)N3CCN(c4ccccc4)CC3)cc2)c1,9.6
CC(C)(OC(=O)c1ccc(C#N)cc1)c1cc2ccccc2c(=O)o1,1.0
COCC(=O)N(Cc1cc2cc(C)ccc2[nH]c1=O)c1cccc(C)c1C,-8.8
Nc1[nH]n(-c2c(Cl)cc(Cl)cc2Cl)c(=O)c1N=Nc1ccc(S(=O)(=O)Nc2ncccn2)cc1,0.5
CCNc1ccc(S(=O)(=O)N2CCCCC2)cn1,-6.7
COc1ccc(OC)c(C2C(C(=O)c3ccco3)=C(O)C(=O)N2CC2CCCO2)c1 (stereo not given),-5.1
